# NPYLR7 ag – agonists of mosquito NPYLR7 receptor, primary screen, cell-based, Aedes aegypti, calcium fluorescence, mosquito biting behavior | activation, % at 10 µM | HEK293T NPYLR7/Galpha15, GCaMP6s calcium fluorescence | actives 0.15% (n = 270,000) | Aedes aegypti neuropeptide Y-like receptor 7 (NPYLR7); in the data active means activation above about 40%;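 further: 0% = vehicle and 100% = reference agonist at the receptor; some compounds past the cut are filed as inactive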
# NPYLR7 ag max-min – recorded beside NPYLR7 ag, whose call it bears; activation, %; measured here: Max-Min RFU normalised activation; some inactives read as strong as hits;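 span of the calcium signal over five minutes; 0% = vehicle and 100% = native peptide agonist; compound fluorescence can raise it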
# * marks the source's active call; other numbers are inactive results. A portion of the library, so the mix of outcomes need not match the whole.
# Every second line gives: NPYLR7 ag, NPYLR7 ag max-min
- CCCCCCCCS(=O)(=O)N1CCC[C@@H]1C(=O)NCCCNC(=O)c1ccccc1
  2, 12
- C=CCn1nnc(NC(=O)c2cccc(OCC(C)C)c2)n1
  -1, -3
- CN(C)CCN(Cc1ccccc1)C(=O)C1CCCCC1C(=O)N1CCc2c([nH]c3ccccc23)C1 (stereo not drawn)
  -10, -23
- O=C(CN1CCC2(CC1)NC(=O)N(Cc1ccc(F)cc1)C2=O)N1CCOCC1
  6, 3
- CCc1nc(SCC(=O)Nc2cccc(C(F)(F)F)c2)c(C#N)cc1C
  -2, -3
- Cc1nc2c(ccc3ccccc32)s1
  2, -1
- CCN(CC)CC(O)c1cc2cc(Br)ccc2s1 (stereo not drawn)
  5, 6
- CCCCCCC(=O)Nc1c(-c2ccc(Cl)cc2)nc2ccccn12
  -4, 3
- CCCCCCCC(=O)N1CCSC1c1ccccc1OCc1ccccc1 (stereo not drawn)
  7, 13
- COc1ccc2sc(N(CC3CCCO3)C(=O)c3cc(C)n(C)n3)nc2c1 (stereo not drawn)
  8, 5
- COc1cccc(NC(=O)c2nnn(-c3ccccc3)c2N)c1
  3, 5
- S=c1[nH]nc(N2CCOCC2)n1-c1ccccc1
  4, 6
- COC(=O)N1CCC(Nc2ccnc(-c3ccccc3)n2)CC1
  5, 7
- COC(=O)CN1CC2(CCN(Cc3ccc(Cl)cc3Cl)CC2)OC1=O
  3, 22
- CCOC(=O)c1ccc2c(c1)nc(SCc1cccc(OC)c1)n2Cc1ccc(C(F)(F)F)cc1
  2, 4
- CCSc1nn(CC(=O)Nc2cccc(C)c2C)c(N)c1S(=O)(=O)c1ccccc1
  -4, -11
- Cc1cc(S(=O)(=O)Nc2cnc3ccccc3c2)ccc1Br
  4, -2
- O=C(NCc1cccc(C(F)(F)F)c1)c1ccc(CSc2nc(Cl)cc(N3CCCC3)n2)cc1
  -1, 9
- COc1cccc(Nc2cc3c(cn2)cc(-c2cnn(C)c2)n3C)c1
  0, -3
- COC(=O)c1cc(NCC(=O)N2CCCc3cccc(F)c32)cc(C(=O)OC)c1
  7, 1
- CCOc1ccc(CN(CCc2c[nH]c3ccccc23)Cc2nc(C(=O)NCCc3ccccn3)co2)cc1
  21, 20
- CC(=O)c1cccc(-c2ccnc3c2CC(C(=O)N2CCN(C)CC2)O3)c1 (stereo not drawn)
  4, 10
- CCONC(=O)c1cnn(-c2ncccc2Cl)c1C(F)F
  12, 9
- Cc1ccc(-c2ccnc(-c3ccc(C(=O)O)s3)n2)c(C)n1
  -2, 0
- Cc1cn2c3c(=O)n(CCN4CCOCC4)c(=O)n(C)c3nc2n1-c1ccccc1
  6, 3
- CCN1CCN(C(=O)c2cc(-c3ccc(OC)cc3)nc3cc(-c4ccccc4)nn23)CC1
  -16, -15
- O=c1[nH]c(CN(Cc2ccccc2)Cc2csc(-c3ccc(F)cc3)n2)nc2ccccc12
  6, 0
- Cn1nc2nc(N3CCN(c4cccc(C(F)(F)F)c4)CC3)nc(-c3cccs3)c2c1N
  6, 5
- COc1ccc(C(=O)NC2CCC(NC(=O)[C@H]3CCCN3C(=O)Cc3cccs3)CC2)cc1 (stereo partly drawn)
  14, 9
- C=CCN(CC=C)C(=O)c1ccc(-n2nc(C(=O)OCC)c3c2-c2ccccc2C3)cc1
  -2, -1

# Ordered by molar mass (descending): 3 of the compounds above
# Every second line gives: NPYLR7 ag, NPYLR7 ag max-min
- O=C(CN1CCC2(CC1)NC(=O)N(Cc1ccc(F)cc1)C2=O)N1CCOCC1
  6, 3
- Cc1ccc(-c2ccnc(-c3ccc(C(=O)O)s3)n2)c(C)n1
  -2, 0
- C=CCn1nnc(NC(=O)c2cccc(OCC(C)C)c2)n1
  -1, -3

# By substructure: the compounds so far containing an NH in an aromatic ring (4)
# Every second line gives: NPYLR7 ag, NPYLR7 ag max-min
- CN(C)CCN(Cc1ccccc1)C(=O)C1CCCCC1C(=O)N1CCc2c([nH]c3ccccc23)C1 (stereo not drawn)
  -10, -23
- S=c1[nH]nc(N2CCOCC2)n1-c1ccccc1
  4, 6
- CCOc1ccc(CN(CCc2c[nH]c3ccccc23)Cc2nc(C(=O)NCCc3ccccn3)co2)cc1
  21, 20
- O=c1[nH]c(CN(Cc2ccccc2)Cc2csc(-c3ccc(F)cc3)n2)nc2ccccc12
  6, 0

# Additional entries follow.
# Every second line gives: NPYLR7 ag, NPYLR7 ag max-min
- OCc1cc(Br)ccc1Oc1ccnc2cc(Cl)ccc12
  1, 2
- O=c1ccc(-c2ccccc2)nn1CCCNS(=O)(=O)c1ccc(C(F)(F)F)cc1
  -1, 1
- CC1(C)C[C@H]2C[C@@H](O)[C@H](NC/C=C/c3ccccc3)[C@]2(O)CO1
  2, 13
- Fc1ccc(Cn2c(-c3nccc4ccccc34)n[nH]c2=S)cc1
  -3, -8
- C=C1C(N)CC2CC1C2(C)C (stereo not drawn)
  -7, -13
- O=c1c2cnn(-c3ccc(F)cc3)c2ncn1Cc1cc(=O)n2ccsc2n1
  10, 7
- COc1ccc(C2CC(=O)C3C(=Nc4ccccc4NC3c3ccc(NC(C)=O)cc3)C2)cc1 (stereo not drawn)
  -3, -4
- COc1ccccc1C(C)N(C)Cc1nc(Cc2ccccc2Cl)no1 (stereo not drawn)
  -3, -8
- CCCCS(=O)(=O)/C=C/[C@H]1[C@H](S(=O)(=O)CCCC)[C@H]2C=C[C@@H]1C2
  5, -1
- CC(CC(=O)N(CC(=O)N1CC(=O)N(c2ccc(F)cc2)C1)C1CC1)CC(C)(C)C (stereo not drawn)
  17, 19
- O=C(Nc1ccc(F)cc1)N1CCC(Cc2ccc(C(F)(F)F)cc2)CC1
  19, 5
- CCCCNC(=O)c1cc(-c2ccccc2)n(-c2ccc(OC)cc2OC)c1C
  19, 27
- O=C(O)COc1cccc(/C=C2/SC(=Nc3ccccc3Cl)NC2=O)c1
  -8, -10
- O=C1CC(O)(C(F)(F)F)Oc2ccc3ccccc3c21 (stereo not drawn)
  22, 19
- Cc1cn2c3c(=O)[nH]c(=O)n(C)c3nc2n1-c1cccc(O)c1
  -7, -8
- COCCNC(=O)CSc1nnc(N2CCN(C(=O)C(C)(C)C)CC2)s1
  -10, -16
- O=C(CCN(c1nc(-c2ccco2)nc2ccccc12)C1CCCCC1)N1CCN(c2ccccc2F)CC1
  25, 28
- Cn1ccnc1-c1cccc(NC(=O)COc2ccc3c(c2)CCC3)c1
  -6, -8
- CC1CN(C(=O)CCCSc2nnc(Cc3ccccc3)n2-c2ccccc2)CCN1C(=O)c1ccc(Cl)cc1Cl (stereo not drawn)
  -3, 8
- COc1ccc(-n2c(CN3CCN(C)CC3)n[nH]c2=O)c(C)c1
  37, 20
- C=CCN1CC(c2nc3ccccc3n2Cc2ccc(C(C)C)cc2)CC1=O (stereo not drawn)
  -6, -5
- COc1ccc(-n2c(NC(C)=O)c[n+]3c2CCc2ccccc2-3)cc1
  2, -2
- O=c1oc(-c2ccccc2Br)nc2ccccc12
  19, 12
- COc1ccccc1CN(c1nc(CCN)nc2ccccc12)C1CC1
  2, -4
- CCCCN(CCO)C(=O)CC(C)c1cccc(F)c1 (stereo not drawn)
  10, 9
- O=C1c2c(O)cc(O)cc2O[C@H](c2ccc(O)c(O)c2)[C@H]1O
  -9, -9
- Cc1cc(C)c2nc(N(CCCN3CCOCC3)C(=O)COc3ccccc3)sc2c1
  6, 2
- COc1cc(OC)cc(C(=O)Nc2ccc(-c3cccc(-c4cccc(OC)c4)n3)cc2)c1
  3, 4
- Cc1nc2c(s1)CCCC2NS(=O)(=O)NCc1ccccc1 (stereo not drawn)
  2, 5
- COc1ccc(S(=O)(=O)NC(=O)C2(C)CCN2C(=O)c2ccccc2)cc1OC (stereo not drawn)
  6, 1

# Compounds shown so far that contain a COOH group:
# Every second line gives: NPYLR7 ag, NPYLR7 ag max-min
- Cc1ccc(-c2ccnc(-c3ccc(C(=O)O)s3)n2)c(C)n1
  -2, 0
- O=C(O)COc1cccc(/C=C2/SC(=Nc3ccccc3Cl)NC2=O)c1
  -8, -10

# New compounds follow
# Every second line gives: NPYLR7 ag, NPYLR7 ag max-min
- O=C(c1cnn(-c2ccccc2)n1)N1CCC(Cn2cccn2)CC1
  2, -1
- CCc1ccc(N2C(=O)CSC2c2ccc(NC(=O)c3ccc(C(F)(F)F)cc3)cc2)cc1 (stereo not drawn)
  8, 8
- CCc1nc2n(n1)C(=O)C(C(c1ccc(Cl)c(Cl)c1)N1CCN(C)CC1)S2 (stereo not drawn)
  -4, -6
- Cn1c(=O)[nH]c(NCCN2CCOCC2)c([N+](=O)[O-])c1=O
  -7, -11
- Cc1nnc(NC(=O)CSc2ncn[nH]2)s1
  -1, -5
- O=S1(=O)CCN(S(=O)(=O)NCc2cccc(Cn3cncn3)c2)CC1
  1, 7
- CC(C)c1ccc(C2CC(c3ccc(Cl)cc3)=Nc3ncnn32)cc1 (stereo not drawn)
  10, 10
- CCC(=O)N1C(C(=O)NCc2cccnc2)COC12CCCCC2 (stereo not drawn)
  -2, 7
- O=C(NCCc1ccccc1F)N1CCCCC1CCN1CCOCC1 (stereo not drawn)
  14, 8
- CCc1cc(OS(=O)(=O)c2cnc3[nH]c(=O)[nH]c(=O)c3c2)ccc1Cl
  -3, -3
- Cc1ccc(-c2ccc(=O)n(CCNC(=O)C(C)Oc3ccccc3F)n2)cc1 (stereo not drawn)
  -1, -1
- COCC(C)NC(=O)c1c(C(F)(F)F)nn(C2CCCN(C)C2)c1C (stereo not drawn)
  12, 0
- O=C1C(=C2SCCS2)CCCC12CC2c1ccccc1 (stereo not drawn)
  8, 6
- COc1ccc(N2C(=O)C3C4C=CC(CCC4)C3C2=O)cc1 (stereo not drawn)
  -9, -13
- CCC1c2cccn2CCN1C(=O)c1cc2ncc(CCO)cn2n1 (stereo not drawn)
  -1, 3
- Cc1ccc(CN2C(=O)C(F)(F)Oc3ccc(C)cc32)cc1
  4, 3
- O=C(NC1=NCCS1)c1cn(Cc2ccc(F)cc2)nc1OCc1ccc(F)cc1
  14, 7
- CC(C)NC(=S)NN=C1CC2CC=CC12 (stereo not drawn)
  1, -1
- CC(C)(C)NC(=O)C(=Cc1ccc(Br)cc1)NC(=O)c1ccccc1
  -3, -5
- CCc1cccc(CC)c1-n1c(CNC(=O)c2ccccc2C(F)(F)F)nnc1SCC(=O)N1CCc2ccccc21
  -5, 2
- CCC(Sc1ncc(S(=O)(=O)c2ccccc2)c(=O)[nH]1)C(=O)Nc1ccc(C(C)C)cc1 (stereo not drawn)
  11, 11
- COc1ccc(C2=NN(c3nc(-c4ccccc4)c4cc(Cl)ccc4n3)C(c3ccccc3)C2)cc1 (stereo not drawn)
  6, 15
- CC(=O)c1c(C)[nH]c(C(=O)N(CCC#N)CC2CC2)c1C
  -2, 82
- COc1ccc([N+](=O)[O-])cc1NC(=O)COC(=O)c1cc(-c2ccc(C)o2)nc2ccccc12
  1, 0
- CC(C)N1CCCN(C(=O)C(=O)Nc2ccc(Cl)cc2F)CC1
  1, -7
- Cc1cc(N2CCC(C(N)=O)CC2)c2nncn2n1
  1, 15
- CCc1ccc(CN(C)C(=O)c2cc(COc3ccc4ncccc4c3)on2)nc1
  -1, -5
- COc1ccc2cc(C(C)NC3CCN(c4ccc(C(=O)NCc5cccnc5)cc4)CC3)ccc2c1 (stereo not drawn)
  16, 3
- CNc1ccc(C(=O)N2CCOC(COCc3cccc(C)c3)C2)cc1 (stereo not drawn)
  15, 9
- CCc1nnc(-c2cc3ccccc3[nH]2)o1
  -9, -6
- Cc1ccc(CN(C)CC(=O)NC(=O)Nc2ccccc2F)o1
  8, 3
- Fc1ccc2nc(NCCCn3ccnc3)sc2c1
  -1, -1
- NC(=O)CCn1cc(-c2c(-c3ccccc3)ncn2CCO)c2ccccc21
  -1, -7

# In a second layout: 4 of the compounds above.
COc1ccc2cc(C(C)NC3CCN(c4ccc(C(=O)NCc5cccnc5)cc4)CC3)ccc2c1 (stereo not drawn)
  NPYLR7 ag: 16	NPYLR7 ag max-min: 3
CNc1ccc(C(=O)N2CCOC(COCc3cccc(C)c3)C2)cc1 (stereo not drawn)
  NPYLR7 ag: 15	NPYLR7 ag max-min: 9
CCc1nnc(-c2cc3ccccc3[nH]2)o1
  NPYLR7 ag: -9	NPYLR7 ag max-min: -6
Cc1ccc(CN(C)CC(=O)NC(=O)Nc2ccccc2F)o1
  NPYLR7 ag: 8	NPYLR7 ag max-min: 3

# Source: PubChem BioAssay
